SARS PLpro yeast – blocks SARS-CoV papain-like protease in a yeast assay. S. cerevisiae expressing SARS-CoV PLpro, growth rescue; control for the full effect not named in the record. Potency, µM (series often up to 32.9 µM), for the others: at the highest dose activity, positive = growth rescue. 330,000 compounds, 0.19% hits. AID 485353; active means well fitted rising curve with a large enough effect; inconclusive means small, poorly fitted or top-dose-only effect; inactive means no such curve, though single readings can be large or run the other way; note: 0% is about no effect; nearly all actives have a fitted effect of over 55% in size; growth read by luminescence after 48 h
Cruzain noTriton – cruzain (T. cruzi) inhibition without detergent. Potency, µM, for the others: max response, negative = inhibition, most hits filed as inhibitors. purified cruzain, Z-FR-AMC fluorescence, no detergent. 200,000 compounds, 2.3% hits. P25779. AID 1476;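 note: plate controls were enzyme without inhibitor for no effect and buffer without enzyme for full effect; nearly all actives have a fitted effect of over 40% in size; top concentration of the series not given in the record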
Target sequence (P25779 123-467 limits assumed): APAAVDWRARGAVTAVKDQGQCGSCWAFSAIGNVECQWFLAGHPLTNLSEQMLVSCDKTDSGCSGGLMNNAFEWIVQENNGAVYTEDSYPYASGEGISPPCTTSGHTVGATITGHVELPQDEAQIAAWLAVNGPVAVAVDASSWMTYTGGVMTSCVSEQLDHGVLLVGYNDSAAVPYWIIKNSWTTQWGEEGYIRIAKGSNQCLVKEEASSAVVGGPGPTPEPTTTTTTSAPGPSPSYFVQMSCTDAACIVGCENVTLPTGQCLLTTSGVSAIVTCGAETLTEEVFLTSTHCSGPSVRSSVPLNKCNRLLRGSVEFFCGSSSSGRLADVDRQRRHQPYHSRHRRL
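Purified cruzain at 1.5 nM, pre-incubated 15 min with compound at room temperature in 100 mM sodium acetate pH 5.5, 5 mM DTT, 0.00005% Triton X-100. Reaction started with 2 uM Z-FR-AMC; AMC fluorescence increase over 60 s gives rate.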
NS1 inh – influenza NS1 inhibition; S. cerevisiae slowed by influenza A NS1, growth recovery by OD600; Potency, µM (titrated, usually from 46.1 µM), inactives show at the highest dose activity, positive = more growth; 270,000 compounds, 0.4% hits; AID 2326; active means well fitted rising curve with a large enough effect; inconclusive means small, poorly fitted or top-dose-only effect; inactive means no such curve, though single readings can be large or run the other way; note: nearly all actives have a fitted effect of over 50% in size
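OD600 was taken as the measure of yeast growth restored by compound in an NS1-expressing S. cerevisiae strain. Cells had been washed out of glucose medium and diluted 1:100 into galactose -URA medium, pH 6.0.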
Cruzain inh Det – cruzain (T. cruzi) inhibition with detergent | P25779 | purified cruzain, Z-FR-AMC fluorescence, 0.01% Triton | Potency, µM, for the others: max response, negative = inhibition, hits mostly inhibitors | 200,000 compounds, 0.43% hits | AID 1478;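 note: plate controls were neutral wells for no effect and buffer without enzyme for full effect; nearly all actives have a fitted effect of over 40% in size; top concentration of the series not given in the record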
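Z-FR-AMC hydrolysis (2 uM substrate) by cruzain (1.5 nM) monitored kinetically at ex 360/em 450 nm after 15 min room-temperature compound exposure; 0.01% Triton X-100, pH 5.5, 5 mM DTT.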
2A StopGo – FMDV 2A StopGo reporter, luciferase signal | human cells with a luciferase reporter of 2A StopGo recoding; control for the full effect not named in the record | Potency, µM (highest dose often 57.9 µM), for inactives: top-dose signal change, negative = less light | 410,000 compounds, 1.2% hits; active = well fitted falling curve with a large enough effect; inconclusive = small, poorly fitted or top-dose-only effect; inactive = no such curve, though single readings can be large or run the other way; tested in HEK293T cells; note: % is set by controls: 0 for no effect and ±100 for the full control effect; nearly all actives have a fitted effect of over 45% in size; luciferase light after 4 h
RE007 growth inh – less growth of the S. pombe RE007 Vpr strain. S. pombe RE007 Vpr strain, BacTiter-Glo ATP luminescence, 24 h; control for the full effect not named in the record. 360,000 compounds, 0.21% hits. AID 651644. Potency, µM (titrated, usually from 92.2 µM), without a hit: at the top dose activity change, negative = less growth; active = well fitted falling curve with a large enough effect; inconclusive = small, poorly fitted or top-dose-only effect; inactive = no such curve, though single readings can be large or run the other way;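 note: % is set by controls: 0 for no effect and ±100 for the full control effect; nearly all actives have a fitted effect of over 50% in size; the assay follows cell death caused by Vpr and the record does not say whether a fall means rescue or toxicity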
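Fission yeast RE007 carrying one integrated HIV-1 vpr copy, seeded at OD 0.01 in PMG+AL medium with 23 nL pinned compound. Grown 24 h at 30 degrees; viability read by BacTiter-Glo luminescence after 5 min.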
Lassa entry inh – inhibitors of Lassa virus binding or cell entry. Lassa virus pseudotype entry inhibition, cell reporter; control for the full effect not named in the record. Potency, µM (top dose mostly 37.9 µM), without a hit: at the top dose activity change, negative = inhibition, most hits filed as inhibitors. 300,000 compounds, 1.2% hits. AID 540256; active means well fitted inhibition curve with a large enough effect; inconclusive means small, poorly fitted or top-dose-only effect, or effect the other way; inactive means flat fitted curve, though single readings scatter; tested in HEK293 cells; note: % is set by controls: 0 for no effect and ±100 for the full control effect; nearly all actives have a fitted effect of over 50% in size; luciferase read-out
MARV entry inh – blocks Marburg virus binding to or entry into cells; Potency, µM (titrated, usually from 37.8 µM), inactives show at the top dose activity change, negative = inhibition, actives largely listed as inhibitors; Marburg virus pseudotyped entry inhibition, cell reporter; control for the full effect not named in the record; about a third of the inactives were read at about 46 µM; 300,000 compounds, 1.8% hits; active = well fitted inhibition curve with a large enough effect; inconclusive = small, poorly fitted or top-dose-only effect, or effect the other way; inactive = flat fitted curve, though single readings scatter; tested in HEK293 cells; about a fifth of its hits are not listed in these tables; note: % is set by controls: 0 for no effect and ±100 for the full control effect; luciferase read-out
* marks the source's active call; other numbers are inactive results; ? = inconclusive; . = not tested or not shown; & = joins results of further samples; [ ] = remark or other dose. Unless noted, calls come from the whole dose curve; as a rule, active = well fitted curve in the direction sought with a large enough effect; inconclusive = small, poorly fitted or top-dose-only effect, or another doubt; inactive = no such curve, though single readings can be large; an effect the other way counts as inactive or inconclusive. Potency is the fitted concentration of half-maximal effect. This is a random part of the collection; overall some 4.7% were active at least once.

Below each compound: SARS PLpro yeast | Cruzain noTriton | NS1 inh | Cruzain inh Det | 2A StopGo | RE007 growth inh | Lassa entry inh | MARV entry inh
1) CCN(CC)c1ccc(/C=N/N2CCOCC2)c(O)c1
    13% | -4% | 3% | -10% | 87%[activator] | -18% | ? | -13%
2) COc1cccc(C(=O)NC23CC4CC(CC(C4)C2)C3)c1
    4% | . | -20% | . | 21% | 0% | 1%[46.1 µM] | ?
3) O=C(O)c1ccccc1C(=O)NCc1ccc2c(c1)OCO2
    3% | . | -1% | . | -17% | 4% | . | .
4) O=C(Nc1nccs1)[C@@H]1CCCN1S(=O)(=O)c1ccc(Cl)cc1
    1% | . | . | . | -11% | 12% | 3% | 10%
5) O=C(N/N=C/c1ccc(OC(F)F)cc1OC(F)F)c1ccc(Br)cc1
    . | 3% | 5% | -5.7% | 15% | 7% | 0% | 7%
6) Clc1ccc(OCc2nn3c(-c4ccco4)nnc3s2)cc1
    -17% | -10% | -145% | -6.3% | 0% | -7% | 2% | -28%
7) COc1ccccc1CNC(=O)c1sccc1-c1ccccc1
    -4% | . | -11% | . | 10% | 11% | -3%[46.1 µM] | -17%[46.1 µM]
8) Cc1ccc(-n2cnn(-c3ccc([N+](=O)[O-])cc3[N+](=O)[O-])c2=O)cc1
    9% | . | ? | . | 24% | -28% | ? | ?
9) O=C(NCC1CCCO1)C1CCN(S(=O)(=O)c2cccc3nonc23)CC1 (configuration not stated)
    23% | -3% | -2% | 1.2% | -11% | 10% | 10% | 5%[46.1 µM]
10) COc1ccccc1CNC(=O)C1CCN(S(=O)(=O)c2ccc3c(c2)NC(=O)CO3)CC1
    0% | . | -9% | . | 18% | 3% | . | .
11) Cc1ccc(NS(=O)(=O)c2ccccc2)c2c1CC(C)(C)O2
    -25% | 0% | 24% | -1.5% | 12% | -10% | ? | ?
12) C=CCNC(C(=O)Nc1cccc(OC)c1)c1ccccc1 (configuration not stated)
    -1% | . | 4% | . | 11% | 7% | 0% | -9%[46.1 µM]
13) CN(C)CCCn1c(NC(=O)C2CCCCC2)nc2ccccc21
    6% | -3% | 1% | 0.6% | . | -1% | 6% | -9%&-9%
14) COc1ccc(C2=NOC(C(=O)Nc3ccc(C)cc3)C2)cc1OC (configuration not stated)
    -5% | 8% | -18% | -1.0% | -21% | -25% | -18% | -15%
15) Cc1ccc(CC2S/C(=C(/C#N)C(=O)NCc3ccco3)N(c3ccccc3)C2=O)cc1 (configuration not stated)
    ? | 3% | 1% | -5.2% | . | -2% | 13% | ?
16) COc1cccc(OC)c1OCCOCCn1cnc2ccccc2c1=O
    10% | 4% | -4% | 11% | -1% | 5% | 3% | 3%
17) CCc1ccccc1-n1ncc(C(=O)Nc2ccccc2OC)c1C
    -24% | . | -144% | . | -27% | 7% | ? | ?
18) COc1ccc(NC(=O)C(c2ccc(C)cc2)N(C)C(=O)c2cnccn2)cc1 (configuration not stated)
    -5% | 8% | -17% | 2.2% | -22% | -5% | 7% | -21%
19) Cc1ccc(NC(=O)N2CCCn3c(SCC(=O)c4ccccc4)nnc32)cc1
    0% | . | 4% | . | -13% | 15% | . | .
20) COc1ccc2nc(SCC(=O)Nc3ccccc3C)[nH]c2c1
    0% | -7% | -11% | -7.9% | 2% | 16% | ? | ?
21) O=C(CCC1CCCCC1)NCCS(=O)(=O)N1CCN(c2ccc(F)cc2)CC1
    -5% | . | . | . | -18% | -19% | ? | 4%[46.1 µM]
22) COc1ccc(CSc2nnc(NC(C)=O)s2)cc1[N+](=O)[O-]
    -1% | . | -2% | . | -6% | -2% | 0% | 2%[46.1 µM]
23) CCCCn1nc2cc(C(=O)NCC3CC3)ccc2c1OCC
    -3% | 9% | -10% | -5.6% | 0% | 12% | . | .
24) COc1ccc(-c2csc3ncn(-c4cccc(C)c4)c(=O)c23)cc1OC
    1% | . | -11% | . | 4% | -3% | . | .
25) CC1CCCCN1C(=O)Nc1ccccc1Cl (configuration not stated)
    0% | . | 1% | . | -9% | 8% | . | .
26) CCOC(=O)c1c(C)[nH]sc1=S
    12% | -12% | -4% | -1.2% | -7% | 43% | -1% | -1%&-1%
27) COc1ccc(CCNC(=O)c2cnc(Cl)c(Cl)c2)cc1
    -2% | . | 0% | . | -8% | -1% | -9% | -8%
28) CCn1cc(CN2CCC(n3nccc3NC(=O)c3cccc(F)c3)CC2)c(C)n1
    -4% | . | -1% | . | -19% | -2% | 9% | -1%
29) CCCC(=O)Nc1cc(-c2nc3cccnc3s2)ccc1C
    . | 11% | . | -11% | 7% | . | 1%[46.1 µM] | .
30) Cc1ccc(S(=O)(=O)c2cc3c(=O)n4ccccc4nc3n(C)c2=N)cc1
    19% | ? | 4% | ? | 3% | -12% | -12% | -12%&-12%

Next results follow:
Below each compound: SARS PLpro yeast | Cruzain noTriton | NS1 inh | Cruzain inh Det | 2A StopGo | RE007 growth inh | Lassa entry inh | MARV entry inh
31) Cc1ccc(C(=O)NNC(=O)CNc2cccc(Cl)c2)cc1
    0% | . | 0% | . | -9% | 16% | . | .
32) CC(=O)NC(CCCN1C(=O)c2ccccc2C1=O)c1nnn(C)n1 (configuration not stated)
    18% | -2% | 7% | -2.7% | 0% | 11% | -2% | ?
33) CCOC(=O)N1CCN(S(=O)(=O)c2ccc(C)cc2)C1
    -2% | . | -2% | . | ? | 0% | . | .
34) Cc1ccc(S(=O)(=O)Oc2ccc3ccc(O)cc3c2)cc1
    -4% | . | -11% | . | 26% | 2% | . | .
35) CC(C)CCNC(=O)C1CCN(S(=O)(=O)c2ccc3nc4c(c(C(=O)O)c3c2)CCCCC4)CC1
    ? | . | -2% | . | 1% | -6% | . | .
36) CC1CCc2cc(F)ccc2N1S(=O)(=O)c1ccc(Cl)nc1 (configuration not stated)
    -14% | -11% | -6% | -2.8% | ? | 15% | -5% | ?
37) CCCCn1c(-c2csc(CC)c2)n[nH]c1=S
    -12% | -9% | -94% | -12% | 0% | -4% | 6% | 5%
38) O=C(CN1C(=O)C(=O)N(CCC2=CCCCC2)C1=O)c1c[nH]c2ccccc12
    -7% | . | . | . | -25% | -9% | ? | -1%
39) O=C(CCCCCNC(=O)N1CCn2c1nc1ccccc12)N[C@H](C(=O)O)c1ccccc1
    -1% | . | -6% | . | -9% | 2% | . | .
40) COc1cccc(CC2(CO)CCN(C(=O)NCCc3ccccc3)CC2)c1
    -1% | . | -2% | . | -14% | -2% | -1%[46.1 µM] | 5%[46.1 µM]
41) O=C(CC(SCCO)c1ccc2c(c1)OCO2)c1cccs1 (configuration not stated)
    7% | -7% | -22% | 0.9% | 32%[activator] | -22% | -29% | ?
42) O=C(O)c1ccc(/C=C/c2nc3sc4c(c3c(=O)[nH]2)CCC4)cc1
    0% | . | . | . | 0% | -3% | 1% | -2%[46.1 µM]
43) O=C(/C=C/c1c(F)cccc1Cl)c1ccc(O)cc1
    -1% | . | -81% | . | 12% | -25% | . | .
44) COc1ccc(C2CC(C(F)(F)F)n3nc(C(=O)O)c(Br)c3N2)cc1 (configuration not stated)
    -3% | 2% | 2% | 3.1% | -11% | -2% | 13% | 0%
45) COC(=O)C(C#N)C(=C1C(=O)CC(C)(C)CC1=O)c1ccc(O)cc1 (configuration not stated)
    2% | -5% | 5% | 0.6% | 7% | -7% | 1% | 11%
46) COc1ccc(OC)c(CCNC(=O)CN2C(=O)COc3ccc(S(=O)(=O)N4CCOCC4)cc32)c1
    -1% | . | -4% | . | -4% | 2% | 1%[46.1 µM] | ?
47) CCCCNC(=O)CNC(=S)N(Cc1ccc(C)cc1)Cc1ccco1
    -2% | . | . | . | 5% | -14% | -18% | ?
48) OCCCCNCc1ccc(OCc2ccccc2Cl)cc1
    -3% | 0% | 11% | 2.1% | . | 5% | -10% | ?
49) CCNS(=O)(=O)c1ccc(NC(=O)c2ccccc2OCC)cc1
    1% | 4% | -4% | 3.2% | . | -5% | 12% | -19%
50) COc1cc(C(=O)NC(=S)Nc2cccc(-c3cc4ccccc4oc3=O)c2)cc(OC)c1OC
    2% | -6% | 0% | -3.2% | -24% | 19% | ? | ?
51) Cc1ccn(CC(=O)N2CCCC(Nc3ccc(F)c(F)c3)C2)n1 (configuration not stated)
    5% | . | -5% | . | -6% | 7% | -1% | 20%
52) O=C1OCCC1Sc1nnnn1-c1ccc(Cl)cc1 (configuration not stated)
    0% | . | -1% | . | -14% | 8% | -23% | -8%[46.1 µM]
53) C=CCn1c(SCC(=O)c2c(C)[nH]c3ccccc23)nnc1-c1ccncc1
    0% | . | 4% | . | -3% | -18% | 18% | 29%[46.1 µM]
54) CC(C)C1/C(=N/O)CC(c2ccccc2)NC1c1ccccc1 (configuration not stated)
    0% | . | 2% | . | ? | -8% | -9% | 0%[46.1 µM]
55) Cc1c(NS(=O)(=O)c2ccc(Br)s2)c(=O)n(-c2ccccc2)n1C
    . | -7% | 2% | 4.5% | 2% | 13% | 4% | ?
56) COc1ccc(CCNC(=O)C23CN(Cc4ccccc4)CC2C(c2ccc([N+](=O)[O-])cc2)=NO3)cc1 (configuration not stated)
    0% | -28% | 2% | 1.9% | -13% | 2% | . | 1%
57) O=c1[nH]c2ccccc2nc1C(F)(F)F
    2% | . | 2% | . | 6% | -5% | 2%[46.1 µM] | -2%[46.1 µM]
58) CN(C1CCS(=O)(=O)C1)S(=O)(=O)c1cccc2nsnc12 (configuration not stated)
    4% | -7% | -3% | -5.4% | -24% | 2% | -11% | 21%
59) Cc1ccc(-c2nc3ccccc3s2)cc1S(=O)(=O)N1CCCC1
    -5% | -4% | 15% | -1.1% | -22% | 1% | 9% | ?
60) Cc1c(Cl)c(=O)oc2cc(OCC(=O)N3CCCC(C)C3)ccc12 (configuration not stated)
    1% | . | . | . | 0% | -4% | ? | 3%
61) COc1ccc(-n2c(O)c(/C=N/NS(=O)(=O)c3ccc(C)c([N+](=O)[O-])c3)c3ccccc3c2=O)cc1OC
    0% | . | 6% | . | 1% | 2% | . | .
62) CCn1c(SCC(=O)Nc2ccc(NC(C)=O)cc2)nc2c([nH]c3ccccc32)c1=O
    3% | . | -4% | . | -3% | 3% | 7% | -2%

Bioassay records from PubChem.
